Source: PubChem BioAssay (several laboratories)
Mtb bLac sens = beta-lactam sensitization of Mtb H37Rv, H37Rv; M. tuberculosis H37Rv growth with meropenem, percent inhibition; hits of this screen are not shown here; inhibition, % at 25 µM; hit rate 0.27% among 330,000;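 active = about 74% or more and at least 40 points above the plate without the antibiotic, then above 30% in a dose series; inconclusive = first-round hits that could not be retested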;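 also: growth measured after seven days incubation then overnight dye step; 0% = bacteria only wells and 100% = bacteria with antibiotic; twin plates without the antibiotic show which effects depend on it; some results filed as inactive read as strong as hits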
Arbovirus anti = antivirals against arbovirus infection, primary screen, cell-based, full library, 10K replicate subset; inhibition, % at 10 µM; hit rate 0.37% among 200,000; arbovirus infection cell-based antiviral screen; AID 1251, 2008;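 active = inhibition from about 30%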;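 also: bluetongue infection of BSR cells; cell survival read as ATP light after 72 h; 0% = infected wells without compound and 100% = uninfected wells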
Mtb H37Rv = M. tuberculosis H37Rv growth inhibitors, H37Rv strain (AID 1626); hit rate 0.95% among 220,000; M. tuberculosis H37Rv growth inhibition; higher % means a stronger effect; inhibition, % at 10 µM, or IC50 in µM where a hit was titrated;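 active = confirmed in a dose series; inconclusive = inhibition above 80% but not taken into the dose series; inactive = below 80% or under 30% at every dose of the series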;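 also: bacteria incubated seven days before Alamar blue readout; 0% = bacteria only wells and 100% = bacteria with antibiotic wells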
YopH PTP inh = YopH tyrosine phosphatase inhibitors, primary screen, biochemical, fluorescence Ex485/Em525 | inhibition, %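 (about 10 µM by stock and volumes)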 | AID 898, 2007 | hit rate 0.16% among 140,000 | YopH tyrosine phosphatase [Yersinia enterocolitica];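 active = inhibition of 50% or more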;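 also: controls were vehicle for no effect and minimum signal wells for full effect; inactives centre near -20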
RecA intein inh = Mtb RecA intein splicing inhibitors, primary screen, biochemical, fluorescence, HTS; Protein RecA (Mycobacterium tuberculosis (strain ATCC 25618 / H37Rv)), P9WHJ3; cell-free RecA intein splicing; inhibition, %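 (about 9 µM by stock and volumes)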; hit rate 0.75% among 290,000; AID 2221, 2009; in the data active = inhibition above about 30%; inconclusive = no clear call, values can overlap the other calls;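 also: 0% = vehicle wells and 100% = reference inhibitor control wells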
Target sequence (P9WHJ3 whole entry, looked up): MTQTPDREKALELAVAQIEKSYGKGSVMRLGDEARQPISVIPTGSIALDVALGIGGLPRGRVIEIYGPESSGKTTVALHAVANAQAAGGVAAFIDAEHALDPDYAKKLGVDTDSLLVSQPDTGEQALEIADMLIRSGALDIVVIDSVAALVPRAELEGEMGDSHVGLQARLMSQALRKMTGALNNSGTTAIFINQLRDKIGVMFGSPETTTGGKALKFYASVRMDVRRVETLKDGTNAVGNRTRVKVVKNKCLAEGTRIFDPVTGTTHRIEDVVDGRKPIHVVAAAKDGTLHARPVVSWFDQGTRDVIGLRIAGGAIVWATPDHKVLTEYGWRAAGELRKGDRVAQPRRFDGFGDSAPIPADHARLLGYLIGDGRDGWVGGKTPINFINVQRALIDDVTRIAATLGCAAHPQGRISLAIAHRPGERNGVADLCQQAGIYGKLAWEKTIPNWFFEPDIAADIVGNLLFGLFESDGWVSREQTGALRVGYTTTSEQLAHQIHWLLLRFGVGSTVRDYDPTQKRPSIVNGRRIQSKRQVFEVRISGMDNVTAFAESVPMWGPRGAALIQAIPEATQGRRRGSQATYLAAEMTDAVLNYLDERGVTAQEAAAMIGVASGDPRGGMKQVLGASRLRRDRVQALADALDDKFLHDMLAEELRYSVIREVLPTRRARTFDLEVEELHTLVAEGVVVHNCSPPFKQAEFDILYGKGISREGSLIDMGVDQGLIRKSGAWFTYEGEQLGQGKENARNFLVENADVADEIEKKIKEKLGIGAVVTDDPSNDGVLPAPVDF
Arbovirus anti repeat = also measured in Arbovirus anti; calls as there; inhibition, %; measured here: 10K subset replicate screen; many hits read low in the repeat;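 first of two repeat runs on a subset; 0% = infected and 100% = uninfected wells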
Active calls of the source: *; ? = inconclusive; . = no result given. An excerpt, so the mix of outcomes need not match the whole.

SMILES	Mtb bLac sens	Arbovirus anti	Mtb H37Rv	YopH PTP inh	RecA intein inh	others
CCn1ncc(Br)c1C(=O)Nc1cc(C)ccc1F	-1	-9	-3%	-29	0.8
C=CCn1c(CNS(=O)(=O)c2ccc(Br)cc2)nnc1SC	-1	.	.	.	-0.2
Cc1nc2ccc(S(=O)(=O)NCC(=O)NCc3ccc4c(c3)OCO4)cc2s1	-6	-5	-11%	-45	-2.3
O=C1c2ccccc2C(=O)N1Cc1cccnc1	-11	1	4%	.	-9.0
NS(=O)(=O)c1ccc(C(=O)O)cc1	1	6	-9%	-23	-5.1
COc1cc(C(=O)N2CCC(c3nc(-c4cccnc4)no3)CC2)cc(OC)c1OC	-8	-1	-25%	34	1.7
CO/N=C/C(NC(=O)c1ccc(C(F)(F)F)cc1)C(=O)OC (stereo unspecified)	-7	7	6%	.	-4.0
O=C(Nc1nc(-c2cccc([N+](=O)[O-])c2)cs1)C(c1ccccc1)c1ccccc1	-7	-10	12%	-41	.
COc1ccc(C(=O)Nc2ccnn2C2CCN(Cc3cccnc3)CC2)cc1	2	.	.	.	-1.3
COc1ccc(OC)c(NC(=O)Nc2cc(NC(=O)Nc3cc(OC)ccc3OC)c(C)nc2C)c1	-2	-2	-2%	-5	-1.3
COc1ccccc1CN(C(=O)c1ccco1)C(C(=O)NC1CCCC1)c1ccncc1 (stereo unspecified)	8	-6	6%	-42	3.3
O=C(Nc1ccnn1C1CCN(Cc2ccc(CO)o2)CC1)c1ccc2c(c1)OCO2	1	.	.	.	0.7
Cc1cccc(NC(=S)N2CCC(C(=O)c3ccc(F)cc3)CC2)c1C	-1	9	-2%	-33	0.6
Cc1ccc(S(=O)(=O)n2nc(OC(=O)c3ccco3)cc2N)cc1	-2	2	-5%	-42	15
O=C1CC(N2CCOCC2)C(=O)N1CCN1C(=O)CC(N2CCOCC2)C1=O (stereo unspecified)	-1	-8	-5%	-53	-0.1
Fc1ccc(CSc2nnc3ccc(-c4ccncc4)nn23)cc1	-9	3	-4%	.	-0.4
Cc1cc(NC(=O)CCC(=O)N(c2cccc(F)c2)C(C(=O)NC2CCCC2)c2ccccc2)no1 (stereo unspecified)	2	.	.	.	-0.5
Cc1nc(S/C(=C/c2ccc(-c3cc(Cl)ccc3C)o2)C(=O)O)n[nH]1	90	.	-4%	.	-8.3
COc1ccc2c(c1)-c1nc(N)sc1CC2	10	-2	-6%	.	23
Cc1cccc(NC(=O)Nc2ccc3c(c2)OCO3)n1	-2	-7	2%	.	.
CC(C)CCn1nnnc1C(C(C)C)N1CCC(C(N)=O)CC1 (stereo unspecified)	8	-1	-6%	-11	-0.2
CC(C(=O)Nc1ccc2c(c1)OCO2)c1ccc([N+](=O)[O-])cc1 (stereo unspecified)	-8	-5	8%	.	1.2
CCOc1ncccc1C(=O)N(C)CC(=O)Nc1ccc(C)cc1	-2	-1	-1%	-24	-1.6
O=C1c2cccnc2-c2ncccc21	-17	-2	-8%	-12	-1.1
Cc1ccc(-c2c(C(=O)NCc3ccccc3)oc(=O)c3ccccc23)cc1	-2	9	10%	-31	1.6
CC(=O)NNc1ncnc2c1cnn2-c1ccc(C)cc1	2	15	1%	.	-3.6
C=C(C)CN(CC)C(=O)CC1C(=O)NCCN1CC(C)(C)C (stereo unspecified)	-6	.	7%	.	-1.0
CCOC(=O)CN(C(=O)CN1CCC(n2nnc3cc(C)ccc32)CC1)c1ccccc1	0	-4	5%	-24	-1.1
O=C(Nc1ccccc1)c1cccc(N2C(=O)CCC2=O)c1	-7	-1	-2%	0	-8.9
Cc1ccn2cc(CCNS(=O)(=O)c3ccc4c(c3)CCCC4)nc2c1	6	-1	?	-28	-1.0
CCc1sc(C(=O)Nc2ncccc2C)cc1C	0	.	.	.	-1.2
CCOC(=O)N1CCN(CCC(=O)Nc2ccc(OC)cc2OC)CC1	-6	3	-5%	-29	0.4
OCCC1CN(Cc2cnc(-c3ccc(Cl)cc3)nc2)CCN1C1CCCC1 (stereo unspecified)	-10	.	2%	.	3.7
COc1ccc2cc(C3C(C#N)=C(N)OC(C)=C3C(C)=O)c(Cl)nc2c1 (stereo unspecified)	3	-1	-3%	.	-3.4
CCN(CC)S(=O)(=O)c1ccc(C(=O)Oc2coc(CSc3nc(C)cc(C)n3)cc2=O)cc1	2	-3	-4%	-10	12
COc1ccc(S(=O)(=O)N2CCNC(=O)CC2)cc1	-11	.	.	.	-7.2
O=C(NCN1C(=O)C2C3C=CC(C3)C2C1=O)OC1CCCCC1 (stereo unspecified)	-7	1	-7%	-15	-2.1
CS(=O)(=O)N(CC(=O)NCCSC1CCCCC1)c1ccc2c(c1)OCO2	-3	-2	1%	28	1.6
Cc1ccc(S(=O)(=O)N2CCC(C(=O)N3CCC[C@H]3C(=O)NCc3ccccc3)CC2)cc1	11	-3	-6%	18	.
O=[N+]([O-])c1cccc2ncccc12	14	.	0%	.	.
O=C(Nc1ccccc1)c1ncoc1-c1ccc(Cl)cc1	-4	.	-12%	.	0.7
COc1ccc(CCNC(=O)C/C(C)=N/NC(=O)C2CCCCC2)cc1OC	0	1	-3%	-12	0.7
CC(=O)Nc1c(O)nc(SCC(=O)Nc2sc3c(c2C#N)CCCCCC3)[nH]c1=O	5	-6	2%	-59	-0.2
C/C(=N\NC(=S)NCc1ccccc1)c1ccccc1F	-1	2	6%	.	7.2
O=C(COc1ncnc2ccccc12)c1ccc(Cl)cc1	-16	1	3%	.	5.4

Quoted at random: 3 compounds from above.
SMILES	Mtb bLac sens	Arbovirus anti	Mtb H37Rv	YopH PTP inh	RecA intein inh	others
CS(=O)(=O)N(CC(=O)NCCSC1CCCCC1)c1ccc2c(c1)OCO2	-3	-2	1%	28	1.6
CC(=O)Nc1c(O)nc(SCC(=O)Nc2sc3c(c2C#N)CCCCCC3)[nH]c1=O	5	-6	2%	-59	-0.2
COc1ccc2cc(C3C(C#N)=C(N)OC(C)=C3C(C)=O)c(Cl)nc2c1 (stereo unspecified)	3	-1	-3%	.	-3.4

The listing continues.
SMILES	Mtb bLac sens	Arbovirus anti	Mtb H37Rv	YopH PTP inh	RecA intein inh	others
O=C(CN1CCN(Cc2ccc(F)cc2)CC1)NCCc1ccccc1	-4	.	.	.	-0.6
Cc1ccc(S(=O)(=O)NCCCCCC(=O)NCCc2ccccc2)cc1	5	.	.	.	0.4
O=C(/C=C/c1ccc(F)cc1)N1CCN(Cc2ccccc2)CC1	-17	.	.	.	0.0
Cc1ccccc1/C(N)=N/OC(=O)c1ccc(F)cc1	2	2	17%	.	2.8
O=C(CCCc1ccccc1)NCCCc1ccccc1	-3	.	.	.	3.1
Cc1ccc(S(=O)(=O)NCCNC(=O)C2CCCNC2=O)cc1 (stereo unspecified)	0	5	-7%	-15	-0.8
Cc1ccc(-c2nc(-c3ccc(Cl)cc3)sc2CC(=O)O)c(C)c1	2	-4	-3%	.	7.2
COc1ccc2c(c1)CCc1cc(C(=O)N3CCN(c4ccc(N5CCOCC5)nn4)CC3)sc1-2	4	-10	.	76*	-0.1	Arbovirus anti repeat=-12
COc1ccc(/C=C2/Sc3ccc(C(=O)N4CCOCC4)cc3NC2=O)cc1OC	-8	.	.	.	0.7
CN(c1ccccc1)c1ccc(/C=N/NC(=O)CC#N)cc1	44	-4	9%	-25	0.6
O=C(NCCOC(=O)c1ccc(Cl)cc1)c1cccnc1	7	3	7%	-1	1.3
C=CCc1c(C)[nH]c2ccc(C)cc2c1=O	2	-2	-4%	-7	0.8
COc1ccccc1CCN=C(N)NS(=O)(=O)c1ccccc1F	7	.	.	.	5.4
O=C(NCC(=O)N(Cc1cccs1)C(C(=O)NC1CCCCC1)c1ccco1)c1ccco1 (stereo unspecified)	-4	-13	-8%	3	2.5
CCc1ccc(NC(=O)COC(=O)c2ccc(Cl)c(S(=O)(=O)N3CCCCCC3)c2)cc1	-10	0	-2%	-26	3.4

Structural class, the compounds so far containing a furan ring, fused or not.
SMILES	Mtb bLac sens	Arbovirus anti	Mtb H37Rv	YopH PTP inh	RecA intein inh	others
COc1ccccc1CN(C(=O)c1ccco1)C(C(=O)NC1CCCC1)c1ccncc1 (stereo unspecified)	8	-6	6%	-42	3.3
O=C(Nc1ccnn1C1CCN(Cc2ccc(CO)o2)CC1)c1ccc2c(c1)OCO2	1	.	.	.	0.7
Cc1ccc(S(=O)(=O)n2nc(OC(=O)c3ccco3)cc2N)cc1	-2	2	-5%	-42	15
Cc1nc(S/C(=C/c2ccc(-c3cc(Cl)ccc3C)o2)C(=O)O)n[nH]1	90	.	-4%	.	-8.3
O=C(NCC(=O)N(Cc1cccs1)C(C(=O)NC1CCCCC1)c1ccco1)c1ccco1 (stereo unspecified)	-4	-13	-8%	3	2.5

The results go on.
SMILES	Mtb bLac sens	Arbovirus anti	Mtb H37Rv	YopH PTP inh	RecA intein inh	others
Cn1c(SCC(=O)Nc2cccc(O)c2)nnc1-c1ccc(S(=O)(=O)N2CCOCC2)cc1	12	4	-9%	-35	-2.5
O=C(CCCCl)Nc1c2c(nn1-c1ccccc1)CSC2	-3	.	.	.	2.3
O=C(CSc1nnc(-c2cccnc2)n1Cc1ccccc1)N1CCOCC1	-3	9	-3%	-27	3.1
CCOC(=O)C1CCCN(C(=O)CSc2nccn2C)C1 (stereo unspecified)	-12	3	-17%	-13	.
CCC1(c2ccccc2)NC(=O)N(CC(=O)Nc2cccc(C#N)c2)C1=O (stereo unspecified)	-1	8	-1%	-41	1.2
CCOc1ccc(NC(=S)c2ccncc2)cc1	-2	-3	7%	-24	-4.5
Cc1ccc(C)c(NC(=O)CNC(=O)N2CC(=O)Nc3ccccc32)c1	4	.	.	.	1.8
CCCCn1c(N)c(N(CCOC)C(=O)c2ccc(N3CCCC3)c([N+](=O)[O-])c2)c(=O)[nH]c1=O	3	.	.	.	-3.7
CCCOc1ccc(-c2csc3nc[nH]c(=O)c23)cc1	1	.	.	.	1.6
O=C(Nc1ncnc2sc3c(c12)CCCCC3)c1ccccc1	98	-19	7%	-3	3.7
Cc1cccc(C(=O)Nc2ccccc2SCC(=O)Nc2ccc(C)c(Cl)c2)c1	-6	-13	2%	-16	1.1
O=C(NCCNC(=O)c1ccccn1)c1ccc(F)cc1	-5	.	.	.	-4.1
CSc1ncccc1C(=O)Nc1nc2c(C)cccc2s1	0	0	2%	-35	1.2
CC1CCCCC1NC(=O)c1cn(C)c2ccc(S(=O)(=O)N3CCOCC3)cc2c1=O (stereo unspecified)	-3	.	.	.	-0.5
O=C(CCc1ccccc1)Nc1nnc(-c2ccc3c(c2)CCCC3)o1	84	-9	?	-41	-3.1	Arbovirus anti repeat=-16
CCOn1c(=O)c(-c2ccc(OC)cc2)[n+]([O-])c2ccccc21	-3	-4	14%	-20	3.5
COc1cccc(Nc2nc(NCCO)c3ccccc3n2)c1	5	17	1%	-9	3.1
O=C(CCN1CCN(c2ccccc2)CC1)Nc1cccc(Br)c1	-6	14	4%	.	-4.0
CCN1C(C(=O)c2ccccc2)=C(Nc2ccccc2C)c2ccccc2S1(=O)=O	-2	2	5%	-57	8.9
CN(C(=O)CSCC(=O)O)C1CCCCC1	43	-10	-2%	-12	-0.6
NC(=O)c1sc2nc(-c3ccco3)ccc2c1N	-1	17	0%	-5	-20
COc1cc(/C=C/C(=O)NC(C)C)ccc1OCc1ccccc1	3	-8	4%	-20	0.1
COC(=O)Nc1ccc(S(=O)(=O)NC2CCCCC2)cc1	-4	.	.	.	2.4
CC(C)c1ccc(NC(=O)C2C3C=CC4(O3)C2C(=O)N(CCN2CCOCC2)C4C(=O)NC2CCCCC2)cc1 (stereo unspecified)	-3	.	.	.	0.3
CCCCn1c(-c2csc3c2CCC(C)C3)n[nH]c1=S (stereo unspecified)	-10	13	2%	-26	10
CN(C(=O)c1ccc(=O)[nH]c1)C1(C(=O)NC2CCCCC2)CCCCC1	-3	5	5%	-48	0.8	Arbovirus anti repeat=6
COc1cccc(NC(=S)N/N=C2/CCCCc3ccccc32)c1	.	-3	?	-15	24
CN1CCN(NC(=O)C23CC4CC(CC(C4)C2)C3)CC1	-6	-4	-1%	-12	-0.2
CCOC(=O)N/N=C\c1ccc(C)s1	0	1	1%	-19	0.5
CC(C)C(NS(=O)(=O)c1ccc2c(c1)oc(=O)n2C)C(=O)N1CCN(C2CCCCC2)CC1 (stereo unspecified)	6	3	-7%	-11	.	Arbovirus anti repeat=8
CC(=O)OCCN1C(=O)c2cccnc2C1=O	-18	10	-2%	34	-0.4
COC(=O)NCN1C(=O)C2C3C=CC(C3)C2C1=O (stereo unspecified)	-5	6	2%	.	-1.6
C=CCNC(=O)CN1C(=O)NC(C)(c2ccc(OC)cc2)C1=O (stereo unspecified)	2	.	.	.	-0.6
COc1ccc(OCC(=O)Nc2ccccc2OC)cc1	10	-1	1%	-23	1.3	Arbovirus anti repeat=2
